# Screens: PubChem, several laboratories
# eIF4H inh: inhibitors of RNA binding by human eIF4H. Q15056. AID 2012. 290,000 tested, 0.94% active. eIF4H fluorescence polarization binding assay. inhibition, % at 35 µM;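 active means 50% or more with normal probe brightness, or confirmed in later tests; inconclusive means above 50% with abnormal brightness, or retests that disagree; inactive means below 50% or failed in later tests; about a fifth of its hits are not listed in these tables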;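 further: calls also rest on retests at 20 µM and on dose response follow-up; 0% = protein and probe with vehicle and 100% = probe without protein; strong numbers were not always called active; many hits fall short of the cut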
# PABP FP inh: blocks human PABP binding to poly(A) RNA; 290,000 tested, 1% active; AID 2014; P11940; inhibition, % at 35 µM; fluorescence polarization;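 active means 50% or more with normal probe brightness, or confirmed in later tests; inconclusive means above 50% with abnormal brightness, or retests that disagree; inactive means below 50% or failed in later tests; about a fifth of its hits are not listed in these tables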;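 further: calls also rest on retests at 20 µM and on dose response follow-up; controls were probe without protein and protein plus probe with vehicle; some compounds called inactive have numbers as strong as hits; many hits fall short of the cut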
# Target sequence (P11940 whole entry, looked up): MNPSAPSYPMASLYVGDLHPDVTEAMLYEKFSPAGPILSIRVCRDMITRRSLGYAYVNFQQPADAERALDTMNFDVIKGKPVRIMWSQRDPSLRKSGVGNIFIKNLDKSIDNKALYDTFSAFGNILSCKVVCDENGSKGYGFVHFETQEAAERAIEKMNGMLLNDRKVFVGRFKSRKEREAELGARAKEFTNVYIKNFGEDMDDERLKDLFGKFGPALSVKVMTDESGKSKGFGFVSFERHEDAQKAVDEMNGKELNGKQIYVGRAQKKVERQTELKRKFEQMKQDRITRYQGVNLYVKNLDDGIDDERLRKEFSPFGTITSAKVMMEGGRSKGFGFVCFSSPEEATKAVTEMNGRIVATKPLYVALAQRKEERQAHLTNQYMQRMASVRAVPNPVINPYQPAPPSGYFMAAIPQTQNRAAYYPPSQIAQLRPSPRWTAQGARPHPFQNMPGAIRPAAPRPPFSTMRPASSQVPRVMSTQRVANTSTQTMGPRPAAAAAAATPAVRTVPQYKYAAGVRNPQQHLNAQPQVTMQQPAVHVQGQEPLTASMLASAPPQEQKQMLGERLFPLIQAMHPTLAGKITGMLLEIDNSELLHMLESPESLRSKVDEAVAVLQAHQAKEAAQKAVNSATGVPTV
# CSC inhib: cancer stem cell inhibition | cancer stem cell-like cells viability, luminescence | inhibition, % at 7.5 µM | 300,000 tested, 1.1% active;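 active means mean at 75% or more and at least half the replicates too; inconclusive means mean and replicates disagree; tested in HMLE shEcad cells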;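 further: 0% = median of negative and 100% = median of positive control wells; the first replicate is given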
# MT1-MMP act inh: blocks activation of human MT1-MMP; 360,000 tested, 0.061% active; GFP/RFP ratio change, % at 20 µM; HT1080 RFP-PRO-GFP cells, GFP/RFP ratio fluorescence, overnight; percent of plate control window, DMSO zero; P50281;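 active means GFP/RFP ratio change of at least 30% with cell ATP level not reduced by more than half and red fluorescence within 50% of control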; further: strong numbers were not always called active
#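 Test system: HT1080 RFP-PRO-GFP cells; Benchmarks: DMSO and RFP-L50D-GFP cell wells; Timing: cells overnight before dosing, compound overnight, 37 °C, 5% CO2; Compound: one 20 µM compound dose with 1% DMSO; Read-out: GFP/RFP fluorescence ratio.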
# Rce1 inh: inhibitors of yeast Ras-converting enzyme | 290,000 tested, 0.27% active | Q03530 | yeast membranes, quenched prenylated peptide cleavage fluorescence | calls only;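 active means fall in fluorescence gain of 50% or more versus controls, with final raw signal at or below 3038400; inconclusive means same 50% fall but final raw signal above 3038400; inactive means fall in fluorescence gain under 50%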;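 further: plate controls were neutral control wells for no effect and wells lacking membranes for full effect; tested at 10 µM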
# HIV Env fusion: inhibitors of HIV Env-mediated cell fusion; 360,000 tested, 1.1% active; HeLa-JRFL Env/CEM21 cell fusion, luciferase; inhibition, % at 12.3 µM;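 active means mean replicate inhibition score of at least 50 and every replicate individually at or above 50; inconclusive means only one of the two criteria met; inactive means mean below 50 and not all replicates reaching 50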;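 further: 0% = plate neutral controls and 100% = maraviroc near 300 nM; one replicate is shown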
# Yeast UUG start: modulators of start codon recognition fidelity in yeast; S. cerevisiae UUG-firefly luciferase reporter, luminescence/redox ratio; activity score, % at 18.7 µM; 350,000 tested, 0.13% active;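 active means replicate mean at a twofold rise or more, about +100% in these data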;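 further: firefly luciferase made from a UUG start codon reports start codon fidelity; reporter light over untreated wells divided by growth signal over untreated wells; some hits fall short of that in this replicate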
# eIF4H inh retest: also measured in eIF4H inh; calls as there; inhibition, %; compound at 20 µM; confirmation average;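 mean of two retest wells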
# PABP FP inh retest: further read-out of PABP FP inh, marked with its call; inhibition, %; compound at 20 µM; confirmation repeats;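 mean of two retest wells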
# MT1-MMP act inh RFP: second read-out of MT1-MMP act inh, no call of its own (marks repeat the call); RFP signal change, %; measured here: RFP expression control read;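 0 = vehicle wells; hits needed this value within 50% of zero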
# An asterisk follows results filed as active; i = inactive; ? = inconclusive; · = not tested or not shown.
SMILES,eIF4H inh,PABP FP inh,CSC inhib,MT1-MMP act inh,MT1-MMP act inh RFP,Rce1 inh,HIV Env fusion,Yeast UUG start,others
CCc1ccc(/C=C2\Oc3ccc(C(=O)OC)cc3C2=O)cc1,-3,9,1,-7,-1,i,-24,·,
COc1ccc(-c2cc(C(N)=O)nc(N3CCCCCC3)n2)cc1,-9,-2,-19,2,4,i,·,-14,
O=C(NCCc1ccccc1)c1cccs1,6,2,-11,1,7,i,-77,-18,
CCN(CC)CCCNC(=O)Cc1c(C(=O)O)n(C)c2ccccc12,1,-4,16,-8,1,i,-29,-7,
CCC(C)C(NC(=O)C1CCC(C)CC1)C(=O)NCCCN1CCCCC1CC (stereo unspecified),1,-8,7,0,-1,i,33,·,
O=C(O)CCSc1ncnc2sc(-c3ccccc3)cc12,-1,-5,10,4,2,i,68*,84,
COc1cccc(CN2CCN(c3ccc(F)cc3)C2=O)c1,3,-2,-6,5,1,i,14,·,
Cc1cc(C(=O)CCC(=O)N(C)CC(=O)Nc2ccccc2Br)c(C)s1,·,·,-9,2,0,i,·,-12,
CCCCOc1ccc(C(=O)NCC(=O)N2CC(C)CC(C)C2)cc1 (stereo unspecified),·,·,·,4,3,·,-3,1,
COCCNC(=O)C(c1cccs1)N(C(=O)Cn1nnc2ccccc21)c1ccc2c(c1)OCO2 (stereo unspecified),-1,0,·,-6,-5,i,·,-6,
C/C(=N\NC(=S)Nc1ccc(F)cc1)C1CC1,-2,2,-5,26,0,i,·,-21,
N#CCCN(Cc1cccnc1)C(=O)Nc1cccc(Cl)c1,-4,3,16,2,-3,i,·,-10,
CC1CCC(NC(=O)CCS(=O)(=O)c2ccc3c(c2)oc(=O)n3C)CC1 (stereo unspecified),8,1,-7,-3,-2,i,-6,-12,
COC1(OC)C(=N/O)/C(=N\O)CCC1O (stereo unspecified),-2,6,-13,-6,3,i,·,-13,
CCCN1CNC(=S)N(CC2CCCO2)C1 (stereo unspecified),3,12,-6,2,4,i,18,-16,

# Two entries drawn at random from the list so far, as already listed:
SMILES,eIF4H inh,PABP FP inh,CSC inhib,MT1-MMP act inh,MT1-MMP act inh RFP,Rce1 inh,HIV Env fusion,Yeast UUG start,others
CCc1ccc(/C=C2\Oc3ccc(C(=O)OC)cc3C2=O)cc1,-3,9,1,-7,-1,i,-24,·,
CC1CCC(NC(=O)CCS(=O)(=O)c2ccc3c(c2)oc(=O)n3C)CC1 (stereo unspecified),8,1,-7,-3,-2,i,-6,-12,

# (continued)
SMILES,eIF4H inh,PABP FP inh,CSC inhib,MT1-MMP act inh,MT1-MMP act inh RFP,Rce1 inh,HIV Env fusion,Yeast UUG start,others
COc1ccc([C@H](NC(=O)OC(C)(C)C)C(=O)OC(C)(C)C)cc1,·,·,-20,0,-4,·,33,-4,
CC(C)(C)NC(=O)CCN1CCOCC1,-12,8,-10,-2,0,i,·,-14,
CN(Cc1ccccc1)C(=O)c1ccc(NC(=O)Cc2ccc(NC(=O)C3CCN(C(=O)CCc4ccccc4)CC3)cc2)cc1,·,·,·,13,-26,·,22,-4,
O=C(Nc1ccc(N2CCCCC2)cc1)c1cc([N+](=O)[O-])cc([N+](=O)[O-])c1,-2,9,6,9,4,i,-3,-11,
Cc1nc(NS(=O)(=O)c2ccccc2)sc1NC(=O)Nc1ccc(Cl)cc1,-2,18,17,8,-2,i,-6,-17,
Cn1c(Oc2ccc(F)cc2F)c(C=O)c2ccccc21,1,-8,-8,-1,0,i,14,-7,
C=CCN1C(=O)C(CC(=O)NCC)SC1=Nc1cc(Cl)ccc1Cl (stereo unspecified),-8,-3,6,-2,0,i,4,-11,
CCOC(=O)C1(Cc2ccc(OC)cc2)CCN(C(=O)c2ccc3[nH]ccc3c2)CC1,8,9,58,-13,-19,i,-51,·,
COc1cc(Br)cc(CN2CCN(C/C=C/c3ccccc3)CC2)c1O,4,38,24,5,0,i,·,-14,
CCN1C(=O)N(CN2CCOCC2)C2C1N(CN1CCOCC1)C(=O)N2CC (stereo unspecified),12,-8,-7,0,6,i,·,-22,
O=[N+]([O-])c1ccc(-c2cn3c(n2)CCC3)cc1,1,-13,-5,15,2,i,-18,-1,
Cc1ccccc1CN1CCN(CC(=O)NCc2ccccn2)C1=O,-2,6,-4,3,5,i,16,-20,
COc1cccc(CNCc2ccc3c(c2)OCO3)c1,17,5,·,3,2,i,-3,3,
CCNC(=O)c1cc(Br)ccc1Cl,-3,0,-13,·,·,i,-13,29,
O=C(NCc1ccccc1)C1=C[C@H](c2ccc(C(F)(F)F)cc2)C[C@H](OCc2ccc(CO)cc2)O1,-9,-14,6,-3,-3,i,-15,-12,

# Of the compounds above, eleven contain nitrogen in an aromatic ring:
SMILES,eIF4H inh,PABP FP inh,CSC inhib,MT1-MMP act inh,MT1-MMP act inh RFP,Rce1 inh,HIV Env fusion,Yeast UUG start,others
COc1ccc(-c2cc(C(N)=O)nc(N3CCCCCC3)n2)cc1,-9,-2,-19,2,4,i,·,-14,
CCN(CC)CCCNC(=O)Cc1c(C(=O)O)n(C)c2ccccc12,1,-4,16,-8,1,i,-29,-7,
O=C(O)CCSc1ncnc2sc(-c3ccccc3)cc12,-1,-5,10,4,2,i,68*,84,
COCCNC(=O)C(c1cccs1)N(C(=O)Cn1nnc2ccccc21)c1ccc2c(c1)OCO2 (stereo unspecified),-1,0,·,-6,-5,i,·,-6,
N#CCCN(Cc1cccnc1)C(=O)Nc1cccc(Cl)c1,-4,3,16,2,-3,i,·,-10,
CC1CCC(NC(=O)CCS(=O)(=O)c2ccc3c(c2)oc(=O)n3C)CC1 (stereo unspecified),8,1,-7,-3,-2,i,-6,-12,
Cc1nc(NS(=O)(=O)c2ccccc2)sc1NC(=O)Nc1ccc(Cl)cc1,-2,18,17,8,-2,i,-6,-17,
Cn1c(Oc2ccc(F)cc2F)c(C=O)c2ccccc21,1,-8,-8,-1,0,i,14,-7,
CCOC(=O)C1(Cc2ccc(OC)cc2)CCN(C(=O)c2ccc3[nH]ccc3c2)CC1,8,9,58,-13,-19,i,-51,·,
O=[N+]([O-])c1ccc(-c2cn3c(n2)CCC3)cc1,1,-13,-5,15,2,i,-18,-1,
Cc1ccccc1CN1CCN(CC(=O)NCc2ccccn2)C1=O,-2,6,-4,3,5,i,16,-20,

# Remaining list, next part:
SMILES,eIF4H inh,PABP FP inh,CSC inhib,MT1-MMP act inh,MT1-MMP act inh RFP,Rce1 inh,HIV Env fusion,Yeast UUG start,others
O=C1CN(C(=O)CSc2nc(-c3ccc(Cl)cc3)cs2)c2ccccc2N1,-3,-9,3,-2,-18,·,12,-16,
CCOC(=O)C1(CCc2ccccc2)CCN(C(=O)CCc2cnccn2)CC1,5,-8,8,0,6,i,9,-4,
CN(CC(=O)Nc1cccc(F)c1)C(=O)c1csc2c1CCCC2,·,·,14,1,-7,i,-7,-22,
O=C(COc1ccc(S(=O)(=O)N2CCCCC2)cc1)NC1CCCCC1,1,0,-10,2,4,i,·,-10,
Cc1ccc(NC(=O)Cc2c(Cl)cccc2Cl)cc1S(=O)(=O)N(C)C,-10,-14,6,1,-4,i,8,·,
O=C(Nc1ccc([N+](=O)[O-])cc1)c1ccc(Cn2cc([N+](=O)[O-])cn2)cc1,0,2,?,-8,-27,i,30,·,
CC(C)N(C(=O)[C@H]1C[C@H](CC(=O)NCc2cccc(C(F)(F)F)c2)C(=O)N2CCc3c([nH]c4ccc(Cl)cc34)[C@]12C)C(C)C,·,·,·,-31,-33,·,-2,-18,
COc1ccc(CN(C)C(=O)Cc2c[nH]c3ccccc23)cc1,-12,2,4,-2,-3,i,15,11,
COc1cccc2c(=O)n(CC(=O)N3CCCCCC3)ccc12,-6,-1,-9,-2,1,i,-7,-11,
O=C(/C=C/c1cccs1)c1ccc(NC(=O)c2ccccc2F)cc1,-6,-4,13,2,4,i,·,3,
CCOC(=O)C1CCCNC1=O (stereo unspecified),6,9,3,-6,-3,i,3,·,
COc1ccc(C(=O)OCC(=O)NCCc2ccc(F)cc2)cc1S(=O)(=O)N1CCOCC1,·,·,-9,3,5,·,·,-8,
CCCN1CN=C(Nc2nc3ccccc3o2)NC1,-7,-5,2,5,0,i,-5,-5,
CC(C)NC(=O)c1cc(=O)n(C)c(=O)n1C,-4,-13,-7,1,2,i,·,·,
O=C(NC(=S)NNC(=O)c1ccccc1O)c1ccco1,5,-16,15,7,4,i,2,-7,
COc1ccc(N(CC(=O)Nc2cccc(C(F)(F)F)c2)S(C)(=O)=O)cc1,-4,-10,-6,2,-2,i,-72,-14,
Cc1ccc(C(=O)OCC(=O)Nc2nc(-c3ccccc3)cs2)cc1NC(=O)c1ccco1,-3,-2,11,-1,-4,i,-13,-20,
COc1ccc(OC)c(NC(=O)C2CCN(Cc3cnn(-c4ccccc4)c3-n3cccc3)CC2)c1,-12,-1,6,14,-3,i,-10,7,
Nn1c(SCc2ccc([N+](=O)[O-])cc2)nc2ccccc2c1=O,6,11,4,-1,-5,i,6,-11,
CCOC(Cn1ccc(=O)[nH]c1=O)OCC,-4,4,-7,7,3,i,12,-22,
COc1ccc(C(=O)Nc2cccc(-c3cnc4ccccc4n3)c2)cc1,0,-2,4,4,0,i,-114,-16,
O=C(COC(=O)/C=C/c1ccc(OC(F)F)cc1)Nc1ccc2[nH]c(=O)[nH]c2c1,·,·,-11,-2,1,·,-13,-24,
C=CCC(=O)N(CC)CC1CCCN(CCc2cccc(F)c2)C1 (stereo unspecified),9,0,·,-3,1,i,-40,-15,
COc1cc(OC)cc(C(=O)OCC(=O)Nc2cccc(C(C)=O)c2)c1,84,-6,-8,2,-2,i,28,-6,eIF4H inh retest=9;PABP FP inh retest=-2
COC(=O)c1ccc(CN2CCN(Cc3ccc(F)cc3)C(CCO)C2)cc1 (stereo unspecified),5,-6,3,-3,-4,i,-3,·,
COc1ccc(/C=C2\C(=O)N(Cc3ccc(F)cc3)CC(=O)N2Cc2ccccc2)cc1,-5,-4,13,2,-6,i,·,-17,
CC(=O)Nc1cccc(-c2ccnc3c2CC(C)(C(=O)NCCN(C)C)O3)c1 (stereo unspecified),·,·,·,3,6,·,2,-23,
Cc1cc(=O)n2c(n1)NC(Nc1cccc(C)c1C)=NC2c1ccccc1 (stereo unspecified),-10,-4,-9,-2,-3,i,-6,·,
Cn1c(=O)c(C(=O)NCC2CCCO2)c(O)c2ccccc21 (stereo unspecified),8,6,3,-1,10,i,-11,6,
CCC(C)NC(=O)C1CCCN(c2nc(C)cc(OC)n2)C1 (stereo unspecified),-4,-12,-8,-1,0,i,·,-9,
Cn1c(N)c(C(=O)COC(=O)CCC(=O)c2ccc(F)cc2)c(=O)n(C)c1=O,13,18,-5,1,3,i,1,-8,
COc1ccccc1N(CC(O)CN1C(=O)NC(C)(C)C1=O)S(=O)(=O)c1ccc(C)cc1 (stereo unspecified),2,-9,9,-6,-1,i,·,0,
O=C(NNc1c2ccccc2nc2ccccc12)c1cc2ccccc2cc1O,2,5,?,56*,-26*,i,·,-17,
COC(=O)Nc1ccc(=O)n(Cc2c(Cl)cccc2Cl)c1,44,30,-6,-2,-2,i,50*,-8,
O=C(CSc1nnc(CNC(=O)c2ccccc2F)o1)NCc1ccccc1,1,0,0,-2,0,i,4,-12,
Cc1cc2nccc(-c3ccc(F)cc3)n2n1,5,8,-18,-5,-7,i,10,1,
COc1cc(/C=N/NC(=O)c2ccc3c(c2)OCCO3)cc(Br)c1O,0,6,·,2,2,i,-9,6,
